Mtb betalactam – beta-lactam sensitization of Mtb H37Rv, H37Rv; M. tuberculosis H37Rv growth with meropenem, percent inhibition; hits of this screen are not shown here; inhibition, % at 25 µM; 0.27% of 330,000 active;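 active = about 74% or more and at least 40 points above the plate without the antibiotic, then above 30% in a dose series; inconclusive = first-round hits that could not be retested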;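 note: growth measured after seven days incubation then overnight dye step; 0% = bacteria only wells and 100% = bacteria with antibiotic; twin plates without the antibiotic show which effects depend on it; some results filed as inactive read as strong as hits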
Mtb H37Rv – M. tuberculosis H37Rv growth inhibitors, H37Rv strain (AID 1626). 0.95% of 220,000 active. M. tuberculosis H37Rv growth inhibition; higher % means a stronger effect. one-dose inhibition, % at 10 µM; IC50 in µM for titrated hits;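 active = confirmed in a dose series; inconclusive = inhibition above 80% but not taken into the dose series; inactive = below 80% or under 30% at every dose of the series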;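 note: bacteria incubated seven days before Alamar blue readout; 0% = bacteria only wells and 100% = bacteria with antibiotic wells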
Arbovirus inh – antivirals against arbovirus infection, primary screen, cell-based, full library, 10K replicate subset | arbovirus infection cell-based antiviral screen | inhibition, % at 10 µM | 0.37% of 200,000 active;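 active = inhibition from about 30%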;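 note: bluetongue infection of BSR cells; cell survival read as ATP light after 72 h; 0% = infected wells without compound and 100% = uninfected wells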
RecA splice inh – Mtb RecA intein splicing inhibitors, primary screen, biochemical, fluorescence, HTS; cell-free RecA intein splicing; 0.75% of 290,000 active; inhibition, %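 (about 9 µM by stock and volumes)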; Protein RecA (Mycobacterium tuberculosis (strain ATCC 25618 / H37Rv)), P9WHJ3; in the data active = inhibition above about 30%; inconclusive = no clear call, values can overlap the other calls;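 note: 0% = vehicle wells and 100% = reference inhibitor control wells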
Target sequence (P9WHJ3 whole entry, looked up, canonical isoform): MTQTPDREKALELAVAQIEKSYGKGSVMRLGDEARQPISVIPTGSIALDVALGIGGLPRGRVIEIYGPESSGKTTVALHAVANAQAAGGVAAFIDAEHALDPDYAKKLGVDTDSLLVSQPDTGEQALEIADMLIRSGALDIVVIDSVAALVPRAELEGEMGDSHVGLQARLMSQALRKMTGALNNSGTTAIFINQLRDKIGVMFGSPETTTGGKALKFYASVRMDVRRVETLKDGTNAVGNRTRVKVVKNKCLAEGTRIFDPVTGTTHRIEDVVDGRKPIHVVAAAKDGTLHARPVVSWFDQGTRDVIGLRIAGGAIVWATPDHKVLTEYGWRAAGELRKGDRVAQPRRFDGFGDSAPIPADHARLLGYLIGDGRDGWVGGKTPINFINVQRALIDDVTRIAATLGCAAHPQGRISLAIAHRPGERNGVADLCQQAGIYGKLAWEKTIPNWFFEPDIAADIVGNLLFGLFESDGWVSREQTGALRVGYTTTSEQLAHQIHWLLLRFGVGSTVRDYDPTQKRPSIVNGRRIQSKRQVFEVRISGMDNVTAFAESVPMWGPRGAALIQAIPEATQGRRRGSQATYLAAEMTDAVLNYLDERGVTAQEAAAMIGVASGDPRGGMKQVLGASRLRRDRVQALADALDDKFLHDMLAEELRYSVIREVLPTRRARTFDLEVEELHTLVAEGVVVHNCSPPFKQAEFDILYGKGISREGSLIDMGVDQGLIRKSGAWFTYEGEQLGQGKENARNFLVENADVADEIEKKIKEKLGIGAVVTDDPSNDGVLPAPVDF
YopH PTP inh – YopH tyrosine phosphatase inhibitors, primary screen, biochemical, fluorescence Ex485/Em525 | YopH tyrosine phosphatase [Yersinia enterocolitica] | inhibition, %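 (about 10 µM by stock and volumes)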 | 0.16% of 140,000 active;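 active = inhibition of 50% or more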;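 note: controls were vehicle for no effect and minimum signal wells for full effect; inactives centre near -20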
Arbovirus inh repeat – also measured in Arbovirus inh; calls as there; inhibition, %; measured here: 10K subset replicate screen; many hits read low in the repeat;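 first of two repeat runs on a subset; 0% = infected and 100% = uninfected wells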
Active calls of the source: *; ? = inconclusive; / = no result given.

SMILES	Mtb betalactam	Mtb H37Rv	Arbovirus inh	RecA splice inh	YopH PTP inh	others
CN(c1ccc(OCC(=O)NC2=NCCS2)cc1)S(=O)(=O)c1ccc(F)cc1	-13	0%	/	-0.9	/
c1ccc(CN2CCN(c3ncnc4nc[nH]c34)CC2)cc1	-1	-8%	-39	3.6	-18
Cc1cc(=O)oc2cc(OCC(=O)OCC(=O)NCc3ccc4c(c3)OCO4)ccc12	-4	-5%	1	1.8	-17
CC(=O)C1=C(C)Nc2cc(C(F)(F)F)ccc2S1	-1	3%	-9	-6.8	-40	Arbovirus inh repeat=-1
O=C(C=C=Nc1ccccc1)C(=O)N=C=Cc1ccccc1	99	16µM*	/	6.1	/
CCn1c2ccccc2c2cc(NC(=O)CNCc3ccccc3OC)ccc21	81	/	/	4.8	/
O=C(Nc1ccc(CN2CCCCC2)cc1)Nc1ccccc1Cl	1	6%	-16	-1.5	/
CC(=O)Nc1ccc(NC(=O)CSc2nnc(NC(=O)Cc3ccc(F)cc3)s2)cc1	-12	/	/	-0.5	/
CC(C)c1nc(=S)c2ccccc2[nH]1	-10	-5%	8	/	-29
CC(=O)N1CC2(C)CN(C(C)=O)CC(C)(C1)C2=O	1	-7%	4	-0.3	/	Arbovirus inh repeat=1
O=C(CCCN1C(=O)CSc2ncccc21)N1CCN(Cc2ccccc2)CC1	-2	-15%	3	2.0	-18	Arbovirus inh repeat=9
CCOc1ccc(C2CC(c3ccc(OC)c(OC)c3)n3nc(N)nc3N2)cc1 (stereo not drawn)	-3	-13%	3	-1.5	-28	Arbovirus inh repeat=3
CC(C)Oc1ccc(Cc2cnc(N)nc2N)cc1	4	0%	-1	-0.1	4
CN1CCN(c2nc(-c3ccco3)cc(C(F)(F)F)n2)CC1	-3	-1%	8	-0.9	-1
CN1CCC(CO)(Cc2ccccc2)CC1	-7	6%	-2	-1.6	/
CCCNC(=O)[C@@H]1CCCN1C(=O)[C@@H]1Cc2ccccc2CN1	1	/	/	2.2	/
Cc1c(C#N)c2ccccc2n1CC(=O)NCc1ccccc1	-1	-2%	8	0.3	-14
O=C(CSc1nnc(-c2cccnc2)o1)Nc1nccs1	19	/	/	0.8	/
CC1(C)Cc2c(cnn2-c2cccc(F)c2)C(NC(=O)Cn2cccn2)C1 (stereo not drawn)	-1	/	/	2.6	/
O=C(CC1NC2CCCCC2NC1=O)Nc1cccc(C(F)(F)F)c1 (stereo not drawn)	2	-7%	8	-1.1	-31

Already shown: 2 of the compounds above.
SMILES	Mtb betalactam	Mtb H37Rv	Arbovirus inh	RecA splice inh	YopH PTP inh	others
CN(c1ccc(OCC(=O)NC2=NCCS2)cc1)S(=O)(=O)c1ccc(F)cc1	-13	0%	/	-0.9	/
c1ccc(CN2CCN(c3ncnc4nc[nH]c34)CC2)cc1	-1	-8%	-39	3.6	-18

Back to the main list; the 2 compounds before the break are reprinted first.
SMILES	Mtb betalactam	Mtb H37Rv	Arbovirus inh	RecA splice inh	YopH PTP inh	others
CC1(C)Cc2c(cnn2-c2cccc(F)c2)C(NC(=O)Cn2cccn2)C1 (stereo not drawn)	-1	/	/	2.6	/
O=C(CC1NC2CCCCC2NC1=O)Nc1cccc(C(F)(F)F)c1 (stereo not drawn)	2	-7%	8	-1.1	-31
Cc1cc(OC(=O)c2c(C)cc(O)cc2O)cc(O)c1C(=O)O	14	/	/	0.6	/
O=C1c2ccccc2C(=O)c2cc(NC(=O)C3CC3)ccc21	2	10%	-19	-3.1	-15
Nc1cccc(Oc2ccc3c(c2)C(=O)NC3=O)c1	-2	/	/	-1.1	/
Cc1c(NC(=O)c2cc(-c3ccccc3)on2)c(=O)n(-c2ccccc2)n1C	7	0%	1	-3.9	-19
Cc1ccc(S(=O)(=O)NC(C(=O)OCC(=O)NC2CCS(=O)(=O)C2)C(C)C)cc1 (stereo not drawn)	-3	-3%	14	0.7	-2
Cc1c(-c2ccc(F)cc2)nc(N)c(C#N)c1-c1ccco1	-2	1%	-1	-2.1	-2
CCCCNC(=O)NNC(=O)c1ccc(F)cc1	-7	-2%	1	-3.1	-19
COc1ccc(C2N(c3ccc(C)cc3)CCN2c2ccc(C)cc2)cc1O	2	17%	0	-2.3	/
CCOC(=O)C1CCN(C(=O)c2oc3ccc(S(=O)(=O)N4CCCCCC4)cc3c2C)CC1	6	-1%	6	-5.8	-70	Arbovirus inh repeat=3
O=C(OC(c1ccccc1)c1nccc2ccccc12)c1cc([N+](=O)[O-])cc([N+](=O)[O-])c1 (stereo not drawn)	99	2.1µM*	-22	0.8	-3
CCC(C)n1c(O)c(/C=N/NC(=O)c2ccncc2)c(=O)[nH]c1=S (stereo not drawn)	100	?	26	-4.0	-19
O=C(O)CN1C(=O)/C(=C\c2cccc(OC(=O)c3ccco3)c2)SC1=S	-4	/	/	31*	/
CC(/C=N/NC(=O)Cc1cccn1C)=C\c1ccccc1	12	5%	-15	-2.5	7
O=C1CSC(=S)N1/N=C/c1cccc(C(F)(F)F)c1	-2	/	/	-2.2	/
CCCC[n+]1c(C)sc2ccc(C)cc21	9	-8%	-9	-3.0	/
CCOc1ccccc1NC(=O)CNC(=O)CNC(=O)Cc1ccccc1	-18	/	/	2.0	/
O=C(COc1ccc(S(=O)(=O)NCc2ccccc2)cc1)N1CCOCC1	3	-1%	-1	/	-75
O=C(CSc1nc2ccccc2o1)N1CCN(c2ccccc2)CC1	22	0%	5	0.1	8
CCc1cc2c(=O)c(Oc3ccccc3)c(C)oc2cc1O	6	3%	-6	1.2	-24
COc1cccc(-c2nnc(SCC(=O)Nc3ccc(OC)c(OC)c3)n2N)c1	3	-8%	14	1.0	-23
CCOC(=O)CSc1nc2cc(S(=O)(=O)N3CCOCC3)ccc2n1CC	-3	/	/	-3.0	/
COc1ccc(N=Cc2nc(-c3ccco3)oc2O)cc1	92	?	-16	1.9	-29
NC(=O)C1CCN(C(=O)/C=C/c2ccco2)CC1	-2	-4%	9	0.5	-31
Cc1c(Cl)cccc1NC(=S)NCCc1ccc(C(F)(F)F)cc1	18	11%	-20	13	/
Cc1cccc(N2CCN(C(=O)c3ccc4ncsc4c3)CC2)c1C	/	/	-12	/	3
O=C(O)Cn1c(=O)c2c3c(sc2n(Cc2ccc(Cl)cc2Cl)c1=O)CCCC3	-2	/	/	6.3	/
O=C([O-])c1ccccc1-[n+]1c(-c2ccccc2)cc(-c2ccccc2)cc1-c1ccccc1	96	/	/	5.2	/
Cc1cc(C(C)(C)C)cc(S(=O)(=O)Nc2ccc(C(=O)O)cc2)c1C	3	0%	0	-2.6	/
COc1ccc(OC)c(Nc2nc(-c3sc(NC(=O)CC(C)C)nc3C)cs2)c1	95	0%	-20	1.9	-12
O=C1NN(c2ccc(Cl)c(Cl)c2)C(=O)/C1=C/c1cccc(OC(=O)c2cccs2)c1	-1	34%	-25	19	-14
CCOC(=O)c1c(C)[nH]c(C(=O)OCCOc2ccc(Cl)cc2)c1C	7	8%	3	/	-14
CC(C)(C)S(=O)(=O)c1ccc2nc3c(n2c1)CCCC3	-2	1%	10	/	-37
CC(C)n1c(=O)c2c(O)cc(=O)oc2c2ccccc21	-1	-3%	-1	-4.0	6
Cc1nc(-c2ccc(S(=O)(=O)N3CCN(Cc4ccccc4)CC3)s2)cs1	-10	0%	/	-0.1	/
O=C(/C=C/c1ccc([N+](=O)[O-])cc1)NCC1CCCO1 (stereo not drawn)	4	3%	3	-1.4	-8
Cc1ccc(NC(=O)CCCc2c[nH]c3ccccc23)nc1	-11	/	/	-0.4	/
CC(C)(CNS(=O)(=O)c1ccc(F)cc1)CNS(=O)(=O)c1ccc(F)cc1	2	-4%	-4	-1.6	12
CCN(CC)S(=O)(=O)c1ccc(C)c(NC(=O)Cn2cnc3cc([N+](=O)[O-])ccc3c2=O)c1	3	-5%	-9	-0.9	/
Cc1ccccc1/C=C/c1nc2ccccc2c(=O)n1CCc1ccccc1	1	1%	2	-75	-22
COCCNC(=O)C1(C(F)(F)F)CC(CCCO)CCCO1 (stereo not drawn)	-2	11%	/	-0.3	/
CCNC(=O)CC1SC(=Nc2cccc(Cl)c2C)N(C)C1=O (stereo not drawn)	15	1%	-1	-0.7	-28
CCOC(=O)C1=NOC(Cn2cc(C#N)c(=O)n(C)c2=O)C1 (stereo not drawn)	7	-3%	-1	1.2	/
CCOC(=O)C1(CC2CC2)CCN(C(=O)c2cc(C3CC3)nc3ccccc23)CC1	-2	7%	1	/	/
Cc1cccc(C)c1NC(=O)CSc1nnc(Cc2ccccc2)o1	0	-6%	-2	-2.2	19
CCC(CC)c1nnc(NC(=O)CCc2ccc(OC)cc2)s1	-3	/	/	-1.7	/
O=C(c1ccc2c(c1)OCO2)[C@@H]1[C@@H]2C(=O)N(C3CCCCC3)C(=O)[C@@H]2C2c3ccccc3C=CN21 (stereo partly drawn)	/	-6%	0	3.9	-19
O=c1[nH]c(COc2ccc(Cl)cc2Cl)nc2ccccc12	4	/	/	0.1	/
Cc1ccc(NC(=S)N(CCN2CCOCC2)Cc2cc3cc4c(cc3[nH]c2=O)OCCO4)cc1	1	2%	/	0.1	/
COC(=O)CSc1nc(C)c(C(=O)Nc2ccccc2C)c(-c2ccc(Cl)cc2)c1C#N	1	-1%	10	-4.6	-4
CCOc1ccccc1C(=O)Nc1ccc(-n2nncc2C(C)(C)C)cc1	8	5%	5	-1.5	/
CC(C)c1ccccc1NC(=O)COC(=O)CCN1C(=O)/C(=C\C=C\c2ccccc2)SC1=S	0	-7%	-8	1.8	-23
CN1CCN(S(=O)(=O)c2cccc([N+](=O)[O-])c2)CC1	?	-4%	/	-3.4	-34
COc1ccccc1-c1n[nH]c2c1[C@H](C)CC[C@H]2C(C)C	66	3%	-27	7.0	-21
COc1cc2c(cc1OC)C(c1ccccc1O)NCC2 (stereo not drawn)	-6	/	/	-1.2	/
N#Cc1nc(COc2ccc(Cl)cc2)oc1N1CCN(Cc2ccccc2)CC1	16	13%	4	15	-19
O=C(NCc1ccc(OC(F)(F)F)cc1)C1CC(c2ccc(C(F)(F)F)cc2)=NO1 (stereo not drawn)	6	2%	/	0.1	/
Cc1ccc(C2=NN(C(=O)c3ccco3)C(O)(C(F)(F)F)C2)cc1 (stereo not drawn)	14	-2%	-7	6.0	/
COCCC(=O)N1CCCC(C(=O)c2ccc(Oc3ccccc3)cc2)C1 (stereo not drawn)	0	3%	7	-1.8	/
CN1CCN(Cc2cc(C(C)(C)C)c(O)c(C(C)(C)C)c2)CC1	-11	-9%	8	0.9	-49
CC(OC(=O)c1ccncc1)C(=O)NC1CCCC1 (stereo not drawn)	-11	4%	5	-0.1	/

Quoted at random: 7 compounds from above
SMILES	Mtb betalactam	Mtb H37Rv	Arbovirus inh	RecA splice inh	YopH PTP inh	others
N#Cc1nc(COc2ccc(Cl)cc2)oc1N1CCN(Cc2ccccc2)CC1	16	13%	4	15	-19
Cc1cccc(C)c1NC(=O)CSc1nnc(Cc2ccccc2)o1	0	-6%	-2	-2.2	19
CCNC(=O)CC1SC(=Nc2cccc(Cl)c2C)N(C)C1=O (stereo not drawn)	15	1%	-1	-0.7	-28
Cc1ccc(NC(=S)N(CCN2CCOCC2)Cc2cc3cc4c(cc3[nH]c2=O)OCCO4)cc1	1	2%	/	0.1	/
CC(C)c1ccccc1NC(=O)COC(=O)CCN1C(=O)/C(=C\C=C\c2ccccc2)SC1=S	0	-7%	-8	1.8	-23
CN1CCN(Cc2cc(C(C)(C)C)c(O)c(C(C)(C)C)c2)CC1	-11	-9%	8	0.9	-49
CCOC(=O)C1=NOC(Cn2cc(C#N)c(=O)n(C)c2=O)C1 (stereo not drawn)	7	-3%	-1	1.2	/

(listing goes on)
SMILES	Mtb betalactam	Mtb H37Rv	Arbovirus inh	RecA splice inh	YopH PTP inh	others
O=S(=O)(Nc1ccc(-n2cccc2)cc1)c1ccc(F)cc1	2	32%	-6	3.1	/
N#Cc1c2n(c3c(=O)n(Cc4ccccc4Cl)cnc13)CCCCC2	-12	3%	0	/	-1
NS(=O)(=O)c1ccc(NC(=O)c2ccccc2Cl)cc1	3	-4%	3	3.0	6
CCCN1CCC(NC(=S)Nc2ccc([N+](=O)[O-])cc2)CC1	-2	-5%	-15	0.8	/
Cc1ccc(NC(=O)Cn2cccc2)cc1	5	-3%	-7	-1.2	/
COc1cc(/C=C/C(=O)c2c(O)cc(C)oc2=O)cc(OC)c1O	79	-7%	-1	-4.3	0
O=C(CSc1ccc2nnc(-c3cccc(F)c3)n2n1)NCc1ccco1	14	1%	10	3.3	1
O=C(CSc1ncn[nH]1)NCCC(c1ccccc1)c1ccccc1	0	0%	9	4.5	-16

The list is partial; count on the stated rates, not on these rows.
